FGF22 binding: binders of human FGF22 protein, primary screen, FGF22 synaptogenesis inhibitor project, biophysical, thermal shift, single point; Fibroblast growth factor 22 (Homo sapiens), Q9HCT0; recombinant FGF22 thermal shift, SYPRO orange fluorescence; percent of sucrose octasulfate shift, DMSO zero; calls only at 9.99 µM; 340,000 tested, 1.5% active;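 active means melting point raised past a set limit in the mean and every replicate; three in four hits are not shown here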
Target sequence (Q9HCT0 whole entry, looked up): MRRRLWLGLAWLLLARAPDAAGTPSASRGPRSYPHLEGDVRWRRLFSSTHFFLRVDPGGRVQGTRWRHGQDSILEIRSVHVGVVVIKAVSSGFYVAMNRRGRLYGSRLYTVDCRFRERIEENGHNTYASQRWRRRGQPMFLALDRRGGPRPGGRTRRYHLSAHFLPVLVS
Calls only; i = inactive. This is a subset; rates above refer to the full screens.

Sample of the layout:
molecule,FGF22 binding
C[C@H](CO)N1C[C@H](C)[C@H](CN(C)C(=O)Nc2ccc(F)cc2)Oc2ccc(NC(=O)CCC(F)(F)F)cc2C1=O,i
Cc1ccc(S(=O)(=O)Nc2ccc3c(c2)C(=O)N([C@H](C)CO)C[C@H](C)[C@@H](CN(C)C(=O)Nc2ccc4c(c2)OCO4)OCCCC[C@H](C)O3)cc1,i
COc1ccccc1NC(=O)N[C@H]1CC[C@H](CC(=O)N[C@H](C)c2ccccc2)O[C@H]1CO,i
Cc1ccc(S(=O)(=O)N(C)C[C@H]2Oc3ccc(NC(=O)CCC(F)(F)F)cc3CC(=O)N([C@@H](C)CO)C[C@H]2C)cc1,i

All compounds of this part, repeating the preview:
molecule,FGF22 binding
C[C@H](CO)N1C[C@H](C)[C@H](CN(C)C(=O)Nc2ccc(F)cc2)Oc2ccc(NC(=O)CCC(F)(F)F)cc2C1=O,i
Cc1ccc(S(=O)(=O)Nc2ccc3c(c2)C(=O)N([C@H](C)CO)C[C@H](C)[C@@H](CN(C)C(=O)Nc2ccc4c(c2)OCO4)OCCCC[C@H](C)O3)cc1,i
COc1ccccc1NC(=O)N[C@H]1CC[C@H](CC(=O)N[C@H](C)c2ccccc2)O[C@H]1CO,i
Cc1ccc(S(=O)(=O)N(C)C[C@H]2Oc3ccc(NC(=O)CCC(F)(F)F)cc3CC(=O)N([C@@H](C)CO)C[C@H]2C)cc1,i
CCC(=O)N[C@@H]1C=C[C@H](CC(=O)NCc2ccccc2F)O[C@@H]1CO,i
CO[C@@H]1CN(C)C(=O)c2cc(NC(=O)c3ccccc3F)ccc2OC[C@H](C)N(C(C)=O)C[C@H]1C,i
CCC(=O)N1CC[C@@H]2[C@H](CO)Nc3ccc(C#Cc4ccc(OC)cc4)cc3[C@@H]21,i
Cc1ccc(-c2cnc3c(c2)C(=O)N([C@H](C)CO)C[C@@H](C)[C@H](CN(C)C(=O)c2ccccc2)O3)cc1,i
CN1[C@@H]2c3ccc(-c4cccc(F)c4)c(=O)n3C[C@@H]2[C@@H](CO)[C@@H]1C(=O)NC1CCC1,i
CCC(=O)N1CC2(CN(C(=O)Nc3c(C)noc3C)C2)c2c([nH]c3cc(OC)ccc23)[C@@H]1CO,i
CCCC(=O)Nc1ccc2c(c1)C(=O)N(C)[C@@H]1CC[C@H](CC(=O)Nc3ccccc3)O[C@@H]1CO2,i
CO[C@@H]1CN(C)C(=O)c2cc(NS(=O)(=O)c3cccc(C)c3)ccc2OC[C@@H](C)NC[C@@H]1C,i
C[C@H]1CN([C@@H](C)CO)C(=O)c2cc(NC(=O)Cn3cnnn3)ccc2O[C@H]1CN(C)C(=O)Nc1ccc2c(c1)OCO2,i
C[C@@H]1CN([C@@H](C)CO)C(=O)Cc2cc(NS(=O)(=O)c3cn(C)cn3)ccc2O[C@H]1CN(C)Cc1ccncc1,i
Cc1noc(C)c1S(=O)(=O)N(C)C[C@H]1OCCCC[C@@H](C)Oc2ccc(NC(=O)NC(C)C)cc2C(=O)N([C@H](C)CO)C[C@@H]1C,i
CC=Cc1ccc2n(c1=O)C[C@@H]1[C@@H](CO)[C@H](C(=O)NCCCN3CCOCC3)[C@H]2N1Cc1cocn1 (mixture of isomers),i
C[C@H](CO)N1C[C@H](C)[C@@H](CN(C)S(=O)(=O)c2ccc(C#N)cc2)OCc2ccccc2-c2c(n(C)c3ccccc23)C1=O,i
CO[C@H]1CN(C)C(=O)c2cc(NC(=O)c3ccno3)ccc2OC[C@H](C)NC[C@H]1C,i
Cc1ccc(S(=O)(=O)N(C)C[C@H]2Oc3c(NC(=O)Nc4ccccc4)cccc3C(=O)N([C@@H](C)CO)C[C@@H]2C)cc1,i
C[C@@H]1CN([C@H](C)CO)C(=O)c2cccc(NC(=O)Nc3ccc(C(F)(F)F)cc3)c2O[C@H]1CN(C)Cc1ccc(Oc2ccccc2)cc1,i
Cc1cccc(S(=O)(=O)N2C[C@H]3[C@@H](c4ccccc42)[C@H](CO)N3CC2CCCC2)c1,i
CN1C(=O)C(Br)(Br)CC1c1cccnc1 (stereo not drawn),i
CCCC(=O)Nc1ccc2c(c1)C(=O)N(C)[C@H]1CC[C@H](CC(=O)N3CCc4ccccc4C3)O[C@H]1CO2,i
C[C@H]1CN([C@@H](C)CO)C(=O)c2cccc(NC(=O)C3CCOCC3)c2O[C@@H]1CN(C)CC1CC1,i
C[C@@H]1CN([C@H](C)CO)S(=O)(=O)c2ccc(C#CC3CC3)cc2O[C@@H]1CN(C)C(=O)Cc1ccncc1,i
C[C@H](CO)N1C[C@H](C)[C@H](CN(C)C(=O)C2CC2)Oc2ncc(C#CC3CCCC3)cc2C1=O,i
Cc1ccc(S(=O)(=O)N(C)C[C@@H]2Oc3c(NC(=O)Nc4c(C)noc4C)cccc3C(=O)N([C@H](C)CO)C[C@@H]2C)cc1,i
CO[C@@H]1CN(C)C(=O)c2cc(NS(=O)(=O)c3ccccc3C)ccc2OC[C@@H](C)N(S(C)(=O)=O)C[C@H]1C,i
C[C@H](O)C#Cc1ccc2c(c1)O[C@H](CN(C)C)[C@H](C)CN([C@H](C)CO)S2(=O)=O,i
COCC(=O)N1[C@H](CO)[C@@H](c2ccc(-c3cccnc3)cc2)[C@@H]1C#N,i
C[C@@H]1CN([C@@H](C)CO)C(=O)c2ccccc2-c2ccccc2CO[C@@H]1CN(C)C(=O)Nc1cccc(Cl)c1Cl,i
C[C@@H]1CN([C@@H](C)CO)C(=O)c2cccc(NC(=O)c3cnccn3)c2O[C@@H]1CN(C)C(=O)NC1CCCCC1,i
COc1ccc2c3c([nH]c2c1)[C@H](CO)N(C(C)=O)CC31CN(C(=O)Nc2c(C)noc2C)C1,i
CCCC(=O)Nc1ccc2c(c1)C(=O)N(C)[C@H]1CC[C@@H](CC(=O)NCC3CC3)O[C@@H]1CO2,i
CO[C@H]1CN(C)C(=O)c2ccc(NC(=O)Nc3ccccc3)cc2OC[C@@H](C)N(C(=O)Nc2c(C)noc2C)C[C@@H]1C,i
O=C(C[C@H]1CC[C@@H]2[C@H](COC[C@@H](O)CN2Cc2ccc(F)cc2)O1)N1CCc2ccccc2C1,i
O=C(C1CC1)N1[C@@H](CO)[C@@H]2c3ccccc3N(S(=O)(=O)c3ccccc3)C[C@@H]21,i
C[C@@H]1CCCCO[C@@H](CN(C)C(=O)Nc2ccc3c(c2)OCO3)[C@@H](C)CN([C@@H](C)CO)C(=O)c2cc(NC(=O)Nc3cccc4ccccc34)ccc2O1,i
CO[C@@H]1CC[C@H]2CCN(C)C(=O)CCCN(C)C(=O)c3cccc(C#N)c3OC[C@@H]1O2,i
C[C@H](NC(=O)C[C@H]1C[C@H]2c3cc(NS(C)(=O)=O)ccc3O[C@H]2[C@@H](CO)O1)c1ccccc1,i
CC(C)c1cn(CC[C@H]2CC[C@H](NC(=O)C3CCC3)[C@@H](CO)O2)nn1,i
CCC(=O)N(C)C[C@@H]1Oc2ncc(-c3ccc(C#N)cc3)cc2C(=O)N([C@@H](C)CO)C[C@H]1C,i
CN(C)C(=O)[C@H]1[C@H](CO)[C@H]2Cn3c(ccc(-c4cccnc4)c3=O)[C@H]2N1Cc1ccccc1F,i
COc1ccc(S(=O)(=O)Nc2ccc3c(c2)C(=O)N([C@@H](C)CO)C[C@H](C)[C@H](CN(C)C(=O)Cc2ccccc2)OCCCC[C@H](C)O3)cc1,i
C[C@H](CO)N1C[C@H](C)[C@@H](CN(C)Cc2ccncc2)Oc2ccc(NC(=O)C3CCCCC3)cc2C1=O,i
COc1ccc([Si](C)(C)[C@@H]2[C@@H](CCn3cc(CCO)nn3)O[C@]3(C(=O)N(Cc4ccc(N5CCOC5=O)cc4)c4ccccc43)[C@H]2C)cc1,i
COc1ccc2c3c(n(C)c2c1)[C@H](CO)N(Cc1ccccc1OC)CC31CCN(C(=O)C2CC2)CC1,i
CC(C)NC(=O)N(C)C[C@@H]1OCCCC[C@@H](C)Oc2ccc(NS(=O)(=O)c3cn(C)cn3)cc2C(=O)N([C@H](C)CO)C[C@@H]1C,i
C[C@H]1CN([C@@H](C)CO)C(=O)c2cc(NC(=O)Nc3ccc(F)cc3)ccc2O[C@@H]1CN(C)Cc1ccc(-c2ccccc2)cc1,i
O=C(c1cccc(F)c1)N1CCCCN2[C@@H](CO)[C@@H](c3ccc(-c4cncnc4)cc3)[C@@H]2C1,i
C[C@@H]1CCCCO[C@@H](CN(C)CC2CCCCC2)[C@@H](C)CN([C@H](C)CO)C(=O)c2cc(NC(=O)Nc3ccccc3)ccc2O1,i
Cc1noc(C)c1NC(=O)N(C)C[C@@H]1Oc2c(cccc2N(C)C)C(=O)N([C@@H](C)CO)C[C@@H]1C,i
CCS(=O)(=O)N1CC(=O)N2[C@@H](CO)[C@H](c3ccc(-c4ccccc4F)cc3)[C@@H]2C1,i
COC(=O)C[C@H]1CC[C@H](NC(=O)c2ccccc2)[C@H](CO)O1,i
CCCc1cn(CC[C@@H]2CC[C@@H](NC(=O)Cc3cccnc3)[C@H](CO)O2)nn1,i
C[C@@H]1CN([C@H](C)CO)C(=O)Cc2cc(NC(=O)CCCCCC(=O)Nc3ccccc3N)ccc2O[C@@H]1CN(C)S(=O)(=O)c1ccccc1,i
C[C@H]1CN([C@@H](C)CO)C(=O)c2cc(NC(=O)Nc3cccc4ccccc34)ccc2O[C@H]1CN(C)S(=O)(=O)c1cn(C)cn1,i
O=S(=O)(c1ccccc1)N1CCCCN2[C@@H](CO)[C@H](c3ccc(-c4cncnc4)cc3)[C@@H]2C1,i
CCCC#Cc1ccc2c(c1)O[C@H](CN(C)C(=O)C1CCC1)[C@H](C)CN([C@@H](C)CO)S2(=O)=O,i
C[C@@H]1CN([C@H](C)CO)C(=O)c2cc(NC(=O)C3CC3)ccc2O[C@@H]1CN(C)S(=O)(=O)c1ccc(Cl)cc1,i

The list goes on.
molecule,FGF22 binding
C[C@@H]1CN([C@H](C)CO)C(=O)c2cc(NS(=O)(=O)c3cccs3)ccc2O[C@@H](C)CCCCO[C@@H]1CN(C)Cc1ccc(C(F)(F)F)cc1,i
Cc1ccc(S(=O)(=O)Nc2ccc3c(c2)CC(=O)N([C@@H](C)CO)C[C@H](C)[C@@H](CN(C)C(=O)Nc2c(C)noc2C)O3)cc1,i
Cc1noc(C)c1S(=O)(=O)Nc1ccc2c(c1)C(=O)N([C@H](C)CO)C[C@H](C)[C@H](CN(C)C(=O)Nc1ccccc1)OCCCC[C@@H](C)O2,i
C[C@@H]1CCCCO[C@@H](CN(C)C(=O)Nc2ccc(C(F)(F)F)cc2)[C@@H](C)CN([C@H](C)CO)C(=O)c2cc(NC(=O)NC3CCCCC3)ccc2O1,i
COc1ccc(NC(=O)Nc2cccc3c2O[C@H](CN(C)Cc2ccncc2)[C@@H](C)CN([C@@H](C)CO)C3=O)cc1,i
C[C@H](CO)N1C[C@H](C)[C@@H](CN(C)Cc2cccnc2)Oc2ncc(-c3ccncc3)cc2C1=O,i
C[C@@H]1CN([C@H](C)CO)C(=O)c2cccc(NC(=O)CCCCCC(=O)Nc3ccccc3N)c2O[C@@H]1CN(C)Cc1ccncc1,i
C[C@@H]1CN([C@@H](C)CO)C(=O)c2cc(-c3cccc(F)c3)cnc2O[C@@H]1CN(C)C(=O)C1CCC1,i
COc1ccc2c3c([nH]c2c1)[C@@H](CO)N(C(=O)c1ccccc1)CC31CCN(C)CC1,i
COc1ccccc1S(=O)(=O)N[C@H]1CC[C@H](CCNC(=O)C2CCC2)O[C@@H]1CO,i
C[C@@H]1CN([C@H](C)CO)S(=O)(=O)c2ccc(C#CC3CC3)cc2O[C@@H]1CN(C)C(=O)c1ccccn1,i
C[C@H]1CN([C@@H](C)CO)S(=O)(=O)c2ccc(C3=CCCC3)cc2O[C@@H]1CN(C)C(=O)c1ccncc1,i
O=C(Cc1ccncc1)NCC[C@H]1CC[C@@H](NC(=O)Nc2ccc(Cl)cc2)[C@@H](CO)O1,i
C[C@H](CO)N1C[C@H](C)[C@H](CN(C)C(=O)NC2CCCC2)Oc2ncc(-c3ccccc3F)cc2C1=O,i
C[C@H]1CN([C@@H](C)CO)C(=O)c2cc(NC(=O)NC3CCCCC3)ccc2O[C@H]1CN(C)Cc1ccc(Oc2ccccc2)cc1,i

3 entries already listed, arranged by formula weight, rising.
molecule,FGF22 binding
COCC(=O)N1[C@H](CO)[C@@H](c2ccc(-c3cccnc3)cc2)[C@@H]1C#N,i
C[C@H](CO)N1C[C@H](C)[C@@H](CN(C)Cc2ccncc2)Oc2ccc(NC(=O)C3CCCCC3)cc2C1=O,i
CO[C@H]1CN(C)C(=O)c2ccc(NC(=O)Nc3ccccc3)cc2OC[C@@H](C)N(C(=O)Nc2c(C)noc2C)C[C@@H]1C,i

Next part.
molecule,FGF22 binding
CCCC#Cc1cnc2c(c1)C(=O)N([C@@H](C)CO)C[C@@H](C)[C@@H](CN(C)C(=O)c1cccc(F)c1)O2,i
C[C@@H](NC(=O)C[C@@H]1CC[C@H](NC(=O)C2CCOCC2)[C@@H](CO)O1)c1ccccc1,i
O=C(C[C@H]1C[C@@H]2c3cc(NC(=O)CC4CC4)ccc3O[C@@H]2[C@H](CO)O1)NCC(F)(F)F,i
C[C@@H]1CN([C@@H](C)CO)C(=O)c2cc(NC(=O)c3ccccc3)ccc2O[C@@H](C)CCCCO[C@H]1CN(C)Cc1ccc(C(F)(F)F)cc1,i
C[C@@H]1CCCCO[C@H](CN(C)C(=O)NC2CCCCC2)[C@H](C)CN([C@@H](C)CO)C(=O)c2cc(NC(=O)c3ccncc3)ccc2O1,i
C[C@@H]1CCCCO[C@@H](CN(C)Cc2ccccc2)[C@@H](C)CN([C@H](C)CO)C(=O)c2cc(NC(=O)CCCCCC(=O)Nc3ccccc3N)ccc2O1,i

Screening results as filed in PubChem BioAssay.
